ClpP mod: qHTS Assay for Activators of ClpP. ATP-dependent Clp protease proteolytic subunit (Bacillus subtilis (strain 168)), P80244. purified B. subtilis ClpP, FRET peptide cleavage, 20 min. Potency, µM (highest dose often 57.5 µM), for the others: at the highest dose activity change, negative = active. 340,000 tested, 1.9% active; active = well fitted falling curve with a large enough effect; inconclusive = small, poorly fitted or top-dose-only effect; inactive = no such curve, though single readings can be large or run the other way; also: potency is read from the fitted curve at half-maximal effect; the source files actives as falling curves though it sought activators and does not explain the sign; nearly all actives have a fitted effect of over 65% in size; many hits overshoot -100%
Target sequence (P80244 whole entry, looked up): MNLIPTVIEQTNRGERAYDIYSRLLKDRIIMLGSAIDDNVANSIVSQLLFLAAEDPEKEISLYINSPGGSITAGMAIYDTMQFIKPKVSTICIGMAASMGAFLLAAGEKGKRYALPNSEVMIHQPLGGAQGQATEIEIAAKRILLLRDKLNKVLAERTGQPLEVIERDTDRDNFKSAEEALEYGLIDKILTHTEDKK
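Buffer: 100 mM Tris/HCl pH8, 100 mM KCl, 0.05% low protease BSA, 2.5% glycerol, 0.01% Tween-20. ClpP 10 microg/mL final; 20 min RT; delta FRET normalized to ADEP and DMSO controls.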
Menin MLL FP FL: inhibitors of human menin-MLL interaction, wild-type MLL peptide; FP activity change, % at 61.4 µM; 290,000 tested, under 10 active; Fluorescence polarization, fluorescein-MLL peptide displacement from menin; AID 1766; inconclusive = falling polarisation curve, or a change in total fluorescence; inactive = total fluorescence flat and polarisation flat or rising; no compound was filed as active; the % refers to the polarisation; negative = inhibition;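 also: % of control where 0% means no effect; inhibitors lower the polarisation; unlabelled MLL peptide was the positive control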
gsp antag: gsp mutant antagonism | gsp-mutant cells, cAMP HTRF, 30 min; control for the full effect not named in the record | Potency, µM (titrated, usually from 76.9 µM), for inactives: at the top dose activity change, negative = inhibition, most hits filed as inhibitors | 340,000 tested, 0.4% active | AID 624288; active = falling curve of any shape with a large fitted effect; inconclusive = falling curve, mostly with a smaller effect; inactive = flat or rising curve; cell line not stated here;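 also: intracellular cAMP measured with PDE inhibitor Ro 20-1724 present during compound exposure; potency is read from the fitted curve at half-maximal effect; % is scaled to controls: 0 for no effect and ±100 for the full control effect; nearly all actives have a fitted effect of over 65% in size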
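G418-selected cells were plated in DMEM/10% FBS for 16-24 h at 37C, then treated with compounds plus the PDE inhibitor […] (300 uM solution added) for 30 min at 37C. Intracellular cAMP was measured by HTRF after 30 min lysis at room temperature.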
gsp ag: gsp mutant agonism | Potency, µM (highest dose often 76.9 µM), inactives show at the top dose activation (cAMP increase), usual class: activators | 340,000 tested, 0.13% active | gsp mutant cells, cAMP HTRF, 30 min; control for the full effect not named in the record; active = well fitted activation curve with a large enough effect; inconclusive = small, poorly fitted or top-dose-only effect, or another doubt; inactive = no such curve, though single readings can be large or run the other way; cell line not stated here;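 also: phosphodiesterase inhibitor Ro 20-1724 added with compounds to block cAMP breakdown; potency is read from the fitted curve at half-maximal effect; nearly all actives have a fitted effect of over 60% in size; about a fifth of the inactives were tested at one dose only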
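Cells stably selected in G418 were plated at 2000/well, grown 16-24 hr, then given compounds in DMSO with the PDE inhibitor […] (300 uM solution added) for 30 min at 37C; cAMP was read by HTRF.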
D2 potentiator: human D2 receptor positive allosteric modulation | 360,000 tested, 0.23% active | DiscoveRx D2 beta-arrestin cells, luminescence, 90 min; 100% = 57 uM dopamine signal | potentiation, % (concentration not given with the values); active = potentiation of 50% or more; inconclusive = 30% to 50%; inactive = 30% or less;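 also: compound concentration not given in the record; tested on top of an EC20 dose of dopamine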
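D2 cells co-treated with compound plus 50 nM dopamine (EC20) for 90 min at 37 deg C to detect potentiation. Beta-arrestin recruitment was read as enzyme-fragment luminescence after 1 h at ambient temperature. Full response was set by 57 uM dopamine.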
Sfp inh: Sfp phosphopantetheinyl transferase inhibition. 310,000 tested, 3.5% active. Biochemical Sfp PPTase activity, qHTS. Potency, µM, for inactives: max response, negative = inhibition, hits mostly inhibitors. Q9F4F7; active = well fitted inhibition curve with a large enough effect; inconclusive = small, poorly fitted or top-dose-only effect, or another doubt; inactive = no such curve, though single readings can be large or run the other way;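 also: the enzyme is Sfp with the accession as filed and its product quenches rhodamine fluorescence; potency is read from the fitted curve at half-maximal effect; 0% = enzyme reaction without inhibitor and -100% = no enzyme wells; top concentration of the series not given in the record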
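Fluorescence-quenching assay with 15 nM Sfp, 5 uM rhodamine-CoA and 12.5 uM BHQ-2-labelled ybbR peptide in pH 7.6 Hepes/MgCl2 buffer. Enzyme was pre-incubated with compound for 15 min at room temperature. Rate was taken from the 30-min fluorescence change (525/598 nm).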
TRPV1 PAM: enhances activation of the human vanilloid receptor TRPV1; Q8NER1; TRPV1-expressing cells, Fluo-8 calcium influx, capsaicin EC20 potentiation; host cell line not named in the record; control for the full effect not named in the record; potentiation, % at 8.33 µM; 320,000 tested, 0.02% active; AID 540277; active means potentiation above 80%; inconclusive means 30% to 80%; inactive means below 30%; also: 0% is about no effect
Target sequence (Q8NER1 whole entry, looked up): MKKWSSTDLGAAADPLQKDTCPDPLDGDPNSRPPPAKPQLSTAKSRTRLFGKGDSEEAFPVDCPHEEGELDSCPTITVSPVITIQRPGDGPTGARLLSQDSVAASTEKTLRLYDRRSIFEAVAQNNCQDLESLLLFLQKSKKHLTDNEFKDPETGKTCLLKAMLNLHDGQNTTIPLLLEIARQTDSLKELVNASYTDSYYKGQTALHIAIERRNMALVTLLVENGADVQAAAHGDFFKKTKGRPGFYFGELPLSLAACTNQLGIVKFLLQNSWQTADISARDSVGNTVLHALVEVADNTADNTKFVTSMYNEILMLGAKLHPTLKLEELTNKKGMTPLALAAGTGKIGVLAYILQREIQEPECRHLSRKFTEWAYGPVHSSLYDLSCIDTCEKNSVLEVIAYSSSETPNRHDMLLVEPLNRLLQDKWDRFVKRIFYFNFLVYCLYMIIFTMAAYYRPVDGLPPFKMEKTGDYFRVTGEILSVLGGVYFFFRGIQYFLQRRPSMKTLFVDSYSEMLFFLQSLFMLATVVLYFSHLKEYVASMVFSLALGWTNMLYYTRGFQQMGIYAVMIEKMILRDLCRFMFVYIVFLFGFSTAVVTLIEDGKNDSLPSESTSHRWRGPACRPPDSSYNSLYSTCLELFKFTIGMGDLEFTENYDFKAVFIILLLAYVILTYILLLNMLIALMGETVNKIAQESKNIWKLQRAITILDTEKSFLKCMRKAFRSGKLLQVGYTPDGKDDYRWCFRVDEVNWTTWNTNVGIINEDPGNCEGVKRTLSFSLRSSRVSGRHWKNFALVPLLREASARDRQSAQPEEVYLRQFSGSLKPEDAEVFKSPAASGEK
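TRPV1-expressing cells were cultured overnight at 35.5C and loaded with Fluo-8 calcium dye for 40 to 90 min at room temperature. After a 10 s baseline, compound was added and calcium influx was read kinetically for 3 min (ex 480/em 520 nm).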
Active calls of the source: *; ? = inconclusive; . = no result given; [ ] = another dose, or the depositor's remark.

SMILES	ClpP mod	Menin MLL FP FL	gsp antag	gsp ag	D2 potentiator	Sfp inh	TRPV1 PAM
CNC(=S)NNC(=O)Cn1ccc(C)n1	0.2%	-1.2	1%	6%	-9	-16%	-2
Cc1ccc2c(c1)N(CC(=O)NCc1cccs1)C(=O)CO2	0.6%	1.3	0%	-1%	3	-2%	-3
CCOC(=O)c1ccc(N=Cc2nc3ccccc3n2C)cc1	-4.7%	3.2	-3%	12%	-3	10%	1
O/N=C(\c1ccccc1)c1nccc2ccccc12	-1.3%	0.5	11%	0%	-8	27%	9
COc1ccc(Cl)cc1-c1n[nH]c(=S)n1Cc1ccccc1	.	-5.6	-5%	31%	-2	-1%	18
O=C(CSc1ccccc1F)NC1CCS(=O)(=O)C1 (stereo not given)	.	-1.0	5%	1%	-4	18%	-6
CC1CN(CCCOc2ccccc2-c2ccccc2)CC(C)O1 (stereo not given)	.	-3.7	-7%	1%[15.4 µM]	-9	56µM*	-2
Cc1ccc(-c2noc(CSc3nnnn3C3CCCCC3)n2)cc1	-1.2%	2.0	-7%	-2%	-6	-6%	-12
Cn1c(N)c(C(=O)COC(=O)c2ccc(Cl)c(S(=O)(=O)N3CCCCC3)c2)c(=O)n(C)c1=O	-1.8%	0.7	1%	4%	5	-20%	3
CCCCCN1C(C)=CC(=C(C#N)C#N)C=C1C	0.7%	2.1	-27%	-27%	-7	14%	8
O=C(Nc1ccc(N2CCOCC2)cc1N1CCOCC1)c1ccc(Cl)cc1	2.1%	1.8	5%	-20%	5	-3%	-34
CC1(C)Cc2c(C#N)c(N3CCN(C(=O)c4ccco4)CC3)nc(-c3ccco3)c2CS1	?	?	6%	23%	-13	20µM*	10
COc1ccc(C(=O)COC(=O)/C=C/c2ccc(S(=O)(=O)Nc3cccc(S(N)(=O)=O)c3)cc2)cc1	-0.5%	1.6	?	26%	-11	19%	0
COc1ccc2nc(Cl)c(C=O)c(N3CCOCC3)c2c1	-4.0%	.	.	5%	-19	.	.
C(=N\Nc1ccccn1)/c1cccnc1	2.8%	-0.1	1%	-4%	-15	-23%	?
CC(/C=N/NC(=O)Cn1cnc2c1c(=O)n(C)c(=O)n2C)=C\c1ccco1	0.7%	2.6	0%	3%[15.4 µM]	2	40µM*	2
Cc1cc(C)cc(NC(=O)C2CCCC2)c1	-1.3%	1.3	-12%	-24%	-19	14%	0
O=C(CCCSc1nc2ccccc2[nH]1)NCc1ccco1	0.7%	-0.9	-4%	-9%	0	2%	10
C=CCNc1nnc(SC2CC(=O)N(c3ccc(OCCC)cc3)C2=O)s1 (stereo not given)	-2.4%	1.1	-10%	6%	-5	50µM*	18
CSc1ccc(C2C(C#N)=C(N)Oc3c2ccc(=O)c2c(C)oc(C)c32)cc1 (stereo not given)	1.3%	?	-7%	4%	-1	56µM*	-8

Next part (three carried over from the part before).
SMILES	ClpP mod	Menin MLL FP FL	gsp antag	gsp ag	D2 potentiator	Sfp inh	TRPV1 PAM
O=C(CCCSc1nc2ccccc2[nH]1)NCc1ccco1	0.7%	-0.9	-4%	-9%	0	2%	10
C=CCNc1nnc(SC2CC(=O)N(c3ccc(OCCC)cc3)C2=O)s1 (stereo not given)	-2.4%	1.1	-10%	6%	-5	50µM*	18
CSc1ccc(C2C(C#N)=C(N)Oc3c2ccc(=O)c2c(C)oc(C)c32)cc1 (stereo not given)	1.3%	?	-7%	4%	-1	56µM*	-8
O=C(Nc1ccccc1Cl)N1CCn2c(nc3ccccc32)C1	2.0%	2.8	-4%	-34%[inhibitor]	0	-15%	-13
COC(=O)c1cn(NC(=O)C2CCCO2)c(=O)c2ccccc12 (stereo not given)	-5.0%	-0.2	4%	?	-2	18%	-38
Cc1ccc(NC2CCCN(C(=O)c3cc4ncccn4n3)C2)cc1C (stereo not given)	0.1%	.	-15%	-1%	-8	-5%	-2
C[C@H]1CN([C@@H](C)CO)C(=O)Cc2cc(NC(=O)CCC(F)(F)F)ccc2O[C@H]1CN(C)CC1CC1	1.0%	.	5%	6%	-3	.	.
CCC(=O)Nc1ccc(S(=O)(=O)Nc2c(NC)c3ccccc3oc2=O)cc1	-0.1%	0.3	9%	3%	7	14%	9
CCOc1ccc(NC(=O)C2CCCN(S(=O)(=O)c3ccc(-n4cnnn4)cc3)C2)cc1 (stereo not given)	.	.	-14%	15%[15.4 µM]	-10	7%	3
O=C(COC(=O)c1cccc(OC(F)F)c1)NC(=O)NC1CCCCC1	1.0%	.	-8%	-6%	-22	.	2
O=C(NCc1ccc2c(c1)OCO2)c1cc([N+](=O)[O-])ccc1N1CCCCC1	0.7%	4.0	19%	36%	6	5%	-22
COc1cccc(C2[C@H](C)C3(CCN2C)OCCO3)c1 (stereo not given in full)	-2.2%	2.9	5%	-25%[15.4 µM]	-7	3%	-9
O=C(COc1ccc(F)cc1)Nc1ccc(-n2cnnn2)cc1	-2.7%	0.6	15%	-10%	-3	10%	-16
Cc1ccc(Cl)c(OCC(=O)Nc2cc(S(=O)(=O)N3CCOCC3)ccc2N2CCCC2)c1	-9.0%	-3.9	?	-16%	0	3%	1
Cc1ccc2c(c1)-c1c(cnn1CC(=O)N(Cc1ccco1)C1CCCCC1)CO2	0.0%	2.1	-29%	-41%	2	-12%	3
CC(C)(C)c1cc(N/C=C\c2nnnn2-c2ccc(Br)cc2)no1	0.2%	3.9	6%	0%	-23	15%	7
c1ccc2c(c1)SCc1nnc(-c3ccncc3)n1-2	0.1%	-1.8	4%	11%[15.4 µM]	-17	1%	-1
COCCN(C(=O)CSc1nnc(-c2ccc(C(C)(C)C)cc2)n1N)c1c(N)n(CC(C)C)c(=O)[nH]c1=O	.	.	2%	2%[15.4 µM]	-33	.	16
COC(=O)c1ccc(Cn2nnc3c(=O)[nH]c(C4CCN(S(=O)(=O)c5ccc(F)cc5)CC4)nc32)cc1	-1.1%	.	-4%	-31%[inhibitor]	1	5%	10
Cc1ccc(S(=O)(=O)CCC(=O)Nc2nnc(-c3ccccc3S(C)(=O)=O)o2)cc1	-17%	.	12%	20%	0	.	5
Nc1cccc(C(=O)Nc2ccccc2Cl)c1	-4.6%	1.6	4%	-3%	1	4%	-7
Cc1nc2sc(C(c3cccc(F)c3)N3CCC(C)CC3)c(O)n2n1 (stereo not given)	-2.5%	0.9	-2%	0%	-13	-8%	-5
CCn1c(C)nc2cc(C(=O)N/N=C(\C)c3ccc(OC)cc3O)ccc21	.	2.8	0%	-1%[15.4 µM]	0	30%	10
CCN(CC)CCNC(=O)Cc1c(C(=O)O)n(C)c2ccccc12	-24%	0.2	-2%	4%	-6	-2%	-6
COc1ccc(Cc2[nH]n3c(=O)cc(C(C)C)nc3c2-c2ccccc2)cc1	.	-1.2	-12%	?	-6	13%	4
Cc1ccc2c(c1)N=C(c1ccc(Cl)cc1)CO2	?	2.5	-6%	-5%	-16	0%	-5
Cc1ccc(S(=O)(=O)N2CCN(C(=O)CSc3ncn[nH]3)CC2)c(C)c1	-2.5%	.	5%	-8%	2	.	10
O=C(O)Cc1csc(-c2ccc(F)cc2)n1	-0.2%	3.2	2%	-2%[15.4 µM]	-2	4%	4
CN(CC(=O)Nc1cccc(F)c1)C(=O)C1CCC(C(=O)N(C)CC(=O)Nc2cccc(F)c2)CC1 (stereo not given)	-1.2%	.	-6%	-3%	-3	.	.
Cc1cccc(C(=O)Oc2ccc(/C=N/O)cc2)c1	1.5%	-0.3	-15%	?	-15	-11%	-8
Cc1ccc(S(=O)(=O)N2CCN(Cc3cc4c(cc3Br)OCCO4)CC2)cc1	0.6%	.	-6%	-10%	2	.	7
COc1ccc(CCNC(=O)COc2ccc(S(=O)(=O)N3CCOCC3)cc2)cc1OC	2.2%	1.1	-4%	-38%[inhibitor]	8	13%	3
COC(=O)CCC(=O)Nc1cc(Cl)cc(Cl)c1	.	0.5	12%	10%[15.4 µM]	0	8%	6
COc1ccc(-c2nn(-c3ccccc3)cc2/C=N/Nc2ccc3ccccc3n2)cc1OC	1.2%	6.5	-9%	-17%[15.4 µM]	-11	-1%	4
Cn1nnnc1SCc1ccc(C(=O)Nc2nccs2)cc1	1.6%	-0.8	-4%	-5%	1	4%	1
Cc1cc(=O)oc2cc(NC(=O)C(CCCN=C(N)N)NC(=O)OCc3ccccc3)ccc12 (stereo not given)	3.7%	14	8%	13%	-11	1%	22
CCC(Oc1ccccc1OC)C(=O)Nc1ccc2c(c1)OCO2 (stereo not given)	.	5.7	-8%	8%[15.4 µM]	-5	8%	-12
Cc1cccc(Cn2cc(/C=C/[N+](=O)[O-])c3ccccc32)c1	1.5%	0.1	2%	-53%[inhibitor]	-13	-7%	12
Cc1ccc(S(=O)(=O)NC(C(=O)OCC(=O)NC(=O)c2cccn2C)C(C)C)cc1 (stereo not given)	-2.2%	-0.6	-26%	-1%	-2	6%	-16
CCN(CC)C(=O)Cn1cc(S(=O)(=O)CC(=O)N2CCCCCC2)c2ccccc21	0.1%	1.9	2%	-1%	-7	12%	-20
N#C/C(=C\c1ccccc1[N+](=O)[O-])C(=O)Nc1ccc(S(N)(=O)=O)cc1	-2.2%	0.9	1%	4%	-11	12%	-9
O=C(O)c1cc(NC(=O)c2ccc(Br)cc2)cc(NC(=O)c2ccc(Br)cc2)c1	1.0%	-1.2	-8%	?	12	20%	-1
COc1ccccc1N1CCN(C(C)C(=O)Nc2ccc(S(=O)(=O)N3CCOCC3)cc2)CC1 (stereo not given)	.	-1.0	-22%	16%[15.4 µM]	-5	4%	-12
CCOc1cccc2c1OC1(C)CC2NC(=O)N1c1cccc(F)c1 (stereo not given)	-1.1%	2.3	11%	8%	-1	17%	0
COc1ccc(NS(=O)(=O)c2ccc(OC)c(NC(=O)CCC3CCCC3)c2)cc1	-4.0%	-10	9%	15%	-12	8%	-5
O=C(Nc1ccccc1C(=O)NCc1cccnc1)c1ccccc1F	1.6%	1.5	20%	1%	-1	4%	-7
COc1ccc(C(=O)N/N=C/c2c(CO)cnc(C)c2O)cc1	?	3.2	-2%	5%	-17	14%	1
